Source: PubChem (National Center for Advancing Translational Sciences (NCATS))
RE007 growth inh = qHTS Assay for Inhibitors of the HIV-1 protein Vpr; S. pombe RE007 Vpr strain, BacTiter-Glo ATP luminescence, 24 h; control for the full effect not named in the record; Potency, µM (top dose mostly 92.2 µM), for the others: at the highest dose activity change, negative = less growth; AID 651644, 2012; 0.21% of 360,000 active; active = well fitted falling curve with a large enough effect; inconclusive = small, poorly fitted or top-dose-only effect; inactive = no such curve, though single readings can be large or run the other way;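 note: % is set by controls: 0 for no effect and ±100 for the full control effect; nearly all actives have a fitted effect of over 50% in size; the assay follows cell death caused by Vpr and the record does not say whether a fall means rescue or toxicity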
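Fission yeast strain RE007, carrying one chromosomally integrated HIV-1 vpr copy, was seeded at OD 0.01 in PMG+AL medium with 23 nL pinned compound. After 24 h at 30 °C and 99% humidity, viability was read by BacTiter-Glo luminescence.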
Marburg entry inh = qHTS for inhibitors of binding or entry into cells for Marburg Virus | Marburg virus pseudotyped entry inhibition, cell reporter; control for the full effect not named in the record; about a third of the inactives were read at about 46 µM | Potency, µM (highest dose often 37.8 µM), inactives show at the highest dose activity change, negative = inhibition, hits mostly inhibitors | 1.8% of 300,000 active | AID 540276, 2011; active = well fitted inhibition curve with a large enough effect; inconclusive = small, poorly fitted or top-dose-only effect, or effect the other way; inactive = flat fitted curve, though single readings scatter; tested in HEK293 cells; about a fifth of its hits are not listed in these tables; note: % is set by controls: 0 for no effect and ±100 for the full control effect; luciferase read-out
SARS PLP yeast = qHTS of Yeast-based Assay for SARS-CoV PLP; S. cerevisiae expressing SARS-CoV PLpro, growth rescue; control for the full effect not named in the record; Potency, µM (top dose mostly 32.9 µM), for inactives: at the top dose activity, positive = growth rescue; 0.19% of 330,000 active; AID 485353, 2010; active means well fitted rising curve with a large enough effect; inconclusive means small, poorly fitted or top-dose-only effect; inactive means no such curve, though single readings can be large or run the other way; note: 0% is about no effect; nearly all actives have a fitted effect of over 55% in size; growth read by luminescence after 48 h
LASV entry inh = qHTS for Inhibitors of binding or entry into cells for Lassa Virus; Potency, µM (titrated, usually from 37.9 µM), for inactives: at the top dose activity change, negative = inhibition, actives largely listed as inhibitors; 1.2% of 300,000 active; AID 540256, 2011; Lassa virus pseudotype entry inhibition, cell reporter; control for the full effect not named in the record; active means well fitted inhibition curve with a large enough effect; inconclusive means small, poorly fitted or top-dose-only effect, or effect the other way; inactive means flat fitted curve, though single readings scatter; tested in HEK293 cells; note: % is set by controls: 0 for no effect and ±100 for the full control effect; nearly all actives have a fitted effect of over 50% in size; luciferase read-out
NS1 function inh = qHTS Assay for Inhibitors of Influenza NS1 Protein Function; 0.4% of 270,000 active; S. cerevisiae slowed by influenza A NS1, growth recovery by OD600; Potency, µM (series often up to 46.1 µM), for the others: at the top dose activity, positive = more growth; active means well fitted rising curve with a large enough effect; inconclusive means small, poorly fitted or top-dose-only effect; inactive means no such curve, though single readings can be large or run the other way; note: nearly all actives have a fitted effect of over 50% in size
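Growth recovery, yeast-based: influenza A NS1 expressed in S. cerevisiae causes slow growth, and suppressors are detected by OD600. The parent strain without NS1 is used as positive control.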
Cruzain inh noDet = qHTS Assay for Promiscuous and Specific Inhibitors of Cruzain (without detergent). Potency, µM, for the others: max response, negative = inhibition, usual class: inhibitors. Cruzipain (Trypanosoma cruzi), P25779. purified cruzain, Z-FR-AMC fluorescence, no detergent. 2.3% of 200,000 active. AID 1476, 2009;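 note: plate controls were enzyme without inhibitor for no effect and buffer without enzyme for full effect; nearly all actives have a fitted effect of over 40% in size; top concentration of the series not given in the record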
Target sequence (P25779 123-467 limits assumed): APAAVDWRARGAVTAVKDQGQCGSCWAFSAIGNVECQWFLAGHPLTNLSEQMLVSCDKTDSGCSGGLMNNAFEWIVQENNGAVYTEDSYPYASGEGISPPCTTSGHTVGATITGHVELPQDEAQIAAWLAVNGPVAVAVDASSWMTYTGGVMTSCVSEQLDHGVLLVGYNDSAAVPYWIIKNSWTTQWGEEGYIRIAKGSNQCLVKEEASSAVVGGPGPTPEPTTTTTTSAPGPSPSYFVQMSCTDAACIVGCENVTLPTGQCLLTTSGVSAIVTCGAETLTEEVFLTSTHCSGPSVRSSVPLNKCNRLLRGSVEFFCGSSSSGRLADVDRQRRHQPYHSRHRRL
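Purified cruzain at 1.5 nM, pre-incubated 15 min with compound at room temperature in 100 mM sodium acetate pH 5.5, 5 mM DTT, 0.00005% Triton X-100. Reaction started with 2 uM Z-FR-AMC; AMC fluorescence increase over 60 s gives rate.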
StopGo reporter = High Throughput Screening for Foot and Mouth Disease Virus Antivirals; human cells with a luciferase reporter of 2A StopGo recoding; control for the full effect not named in the record; Potency, µM (top dose mostly 57.9 µM), inactives show top-dose signal change, negative = less light; 1.2% of 410,000 active; AID 1159524, 2015; active = well fitted falling curve with a large enough effect; inconclusive = small, poorly fitted or top-dose-only effect; inactive = no such curve, though single readings can be large or run the other way; tested in HEK293T cells; note: % is set by controls: 0 for no effect and ±100 for the full control effect; nearly all actives have a fitted effect of over 45% in size; luciferase light after 4 h
Cruzain inh Det = qHTS Assay for Promiscuous and Specific Inhibitors of Cruzain (with detergent); Cruzipain (Trypanosoma cruzi), P25779; purified cruzain, Z-FR-AMC fluorescence, 0.01% Triton; Potency, µM, inactives show max response, negative = inhibition, actives largely listed as inhibitors; 0.43% of 200,000 active;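 note: plate controls were neutral wells for no effect and buffer without enzyme for full effect; nearly all actives have a fitted effect of over 40% in size; top concentration of the series not given in the record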
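Detergent-containing run (0.01% Triton X-100) in acetate buffer pH 5.5 with 5 mM DTT: enzyme at 1.5 nM final, 15 min compound preincubation at room temperature, then 2 uM Z-FR-AMC substrate. Activity taken as 60 s fluorescence increase at 360/450 nm.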
Numbers without * were called inactive; ? = inconclusive; / = not tested or not shown; & = joins results of further samples; [ ] = another dose, or the depositor's remark. Unless noted, calls come from the whole dose curve; as a rule, active = well fitted curve in the direction sought with a large enough effect; inconclusive = small, poorly fitted or top-dose-only effect, or another doubt; inactive = no such curve, though single readings can be large; an effect the other way counts as inactive or inconclusive. Potency is the fitted concentration of half-maximal effect.

SMILES	RE007 growth inh	Marburg entry inh	SARS PLP yeast	LASV entry inh	NS1 function inh	Cruzain inh noDet	StopGo reporter	Cruzain inh Det
CCOC(=O)C1CCCN(C(=O)c2cc(Cl)ccc2Cl)C1 (stereo unspecified)	17%	?	-5%	?	-10%	-6%	/	-1.4%
CN(C)c1ccc(C2NCC(CCl)O2)cc1 (stereo unspecified)	21%	-10%[46.1 µM]	-1%	-7%	-51%	-8%	-10%	-2.8%
CCOC(=O)Cc1c(C)nc2c(-c3ccccc3)c(-c3ccccc3)[nH]n2c1=O	2%	18%	1%	0%	16%	6%	-1%	0.9%
CN(C)S(=O)(=O)Oc1cccc(C(=O)Nc2ccc(Cl)cc2)c1	3%	?	-4%	15µM*	-8%	-5%	-29%	-4.2%
Clc1cccc(-n2ncc3c(N4CCN(Cc5ccccc5)CC4)ncnc32)c1	/	/	/	0%[46.1 µM]	/	-8%	?	0.5%
COc1ccc(C(=O)NNC(=O)c2ccccc2[N+](=O)[O-])cc1[N+](=O)[O-]	2%	-4%[46.1 µM]	0%	?	-2%	/	-13%	/
CCc1ccc(NC(=O)c2ccc(F)c(S(=O)(=O)N3CCc4ccccc4C3)c2)cc1	/	/	/	?	/	?	-30%	0.6%
COc1ccccc1NC(=O)C(=O)NCc1ccccc1Cl	2%	3%	0%	5%	2%	?	-12%	-0.5%
N#Cc1c(NC(=O)C2CC2)sc2c1CCCCC2	-3%	2%	-52%	?	-12%	0%	28%	-9.9%
CC(C)CCNC(=O)C1CCN(c2nc3ccc(Cl)cc3[nH]2)CC1	/	/	/	7%[46.1 µM]	/	-17%	-9%	-6.3%
CC(=O)N1CCN=C1SCc1ccccc1	-4%	-7%	8%	/	?	-2%	-25%	3.2%
CCOc1ccccc1NC(=O)C1CCCCN1S(=O)(=O)c1ccccc1 (stereo unspecified)	-10%	?	4%	?	/	/	-27%	/
CC(C)c1ccc(NC(=O)c2n[nH]c(=O)c3ccccc23)cc1	-15%	?	1%	2%[46.1 µM]	/	/	37%[activator]	/
CCOCCCNC(=O)CN1C(=O)C(CC)Oc2ccccc21 (stereo unspecified)	14%	7%	-6%	7%	-1%	14%	/	7.3%
Cn1c(=O)n(C)c2cc([N+](=O)[O-])c(N3CCN(C(=O)c4cccc(F)c4)CC3)cc21	-11%	-6%[46.1 µM]	0%	?	1%	/	?	/
CCN(C(=O)COC(=O)CCc1ccccc1)c1ccccc1	-12%	-2%[46.1 µM]	7%	-14%	9%	/	-12%	/
Cc1cc(C)n(CCc2nc3c4ccccc4nc(N4CCN(c5ccc(F)cc5)CC4)n3n2)n1	/	0%[46.1 µM]	/	/	/	-9%	-7%	-1.0%
Cn1c(SCc2cccnc2)nnc1-c1c[nH]c2ccccc12	10%	/	2%	/	-6%	-8%	24%	1.7%
CCc1nnc2cccc(Cl)n12	-9%	2%	1%	-14%	-4%	/	-5%	/
Cc1ccc(C(=O)OCCn2cc(C#N)c(=O)[nH]c2=O)cc1	9%	21%[46.1 µM]	0%	?	-1%	/	-12%	/
CC(=O)c1sc(NC(=O)C2=NN(c3ccccc3)C(=O)CC2)nc1C	-9%	0%[46.1 µM]	1%	?	/	/	-7%	/
CCOC(=O)C1(Cc2ccc(OC)cc2)CCN(C(=O)CCc2cccnc2)CC1	-9%	3%[46.1 µM]	-1%	-5%[46.1 µM]	1%	/	6%	/
Cc1cc(NC(=O)CSCC(=O)OC(C)C(=O)c2cc(C)c(C)cc2C)no1 (stereo unspecified)	-5%	1%	-10%	13%	/	/	-10%	/
Cc1nn(Cc2ccccc2)c(C)c1NC(=O)CSc1nc2sc3c(c2c(=O)n1C)CCC3	7%	6%	/	6%	-26%	/	?	/
Nc1cc(=O)[nH]c(=O)n1CC1CC1	-9%	10%	3%	3%	4%	?	4%	3.0%&0.0%

Remaining list, next part
SMILES	RE007 growth inh	Marburg entry inh	SARS PLP yeast	LASV entry inh	NS1 function inh	Cruzain inh noDet	StopGo reporter	Cruzain inh Det
COC(=O)c1sc2nc(C)cc(C)c2c1N	-5%	?	0%	21%[46.1 µM]	3%	/	35%[activator]	/
CC(C)c1nc(-c2ccc([N+](=O)[O-])cc2)cs1	/	?	8%	-2%	0%	-19%	-1%	-9.4%
CCCCN(CC)C(=O)c1c[nH]c2ccc(S(=O)(=O)N(C)c3ccc(Cl)cc3)cc2c1=O	/	/	/	-4%[46.1 µM]	/	-13%	-25%	-0.2%
COC(=O)C(N)Cc1ccc(OC)c([N+](=O)[O-])c1 (stereo unspecified)	2%	0%	1%	4%	-1%	/	-8%	/
O=C(NCCCN1CCCC1)c1ccc2c(c1)N(Cc1ccccc1F)C(=O)c1ccccc1S2(=O)=O	9%	/	-4%	/	2%	/	16%	/
O=C(Nc1cc(Cl)cc(Cl)c1)C(NCCO)c1ccccc1 (stereo unspecified)	7%	18%	?	-3%	-3%	14%	11%	3.0%
CC(C)(C)c1cc2nc(N)nc(N)n2n1	-3%	1%&1%	0%	3%	1%	/	-1%	/
c1ccc2sc(SN3CCOCC3)nc2c1	24%	-1%	-15%	1%	-68%	-9%	32%[activator]	-3.7%
CCOC(=O)C1=C(O)/C(=C/c2cc(OC)c(O)c(OC)c2)SC1=Nc1ccc(OC)cc1	11%	-19%	8%	?	2%	?	?	-11%
O=C(O)C1CCC(CNCc2ccncc2)CC1 (stereo unspecified)	-6%	11%[46.1 µM]	0%	21%[46.1 µM]	5%	/	-11%	/
CCOc1cc(/C=C/C(=O)NCCc2ccc(S(N)(=O)=O)cc2)ccc1OCC(C)C	5%	/	0%	/	-10%	/	?	/
CCOc1c(Br)cc(C2C=C(C(=O)O)Nc3ncnn32)cc1OC (stereo unspecified)	/	?	/	17%[46.1 µM]	/	1%	-10%	0.1%
COc1ccccc1C(=O)Oc1cc(N)n(S(=O)(=O)c2ccc(C)cc2)n1	-1%	-4%	-3%	-12%	0%	?	6%	-12%
Cc1cc(=O)oc2ccc(OCc3ccccc3)cc12	3%	/	-1%	/	26%	/	13%	/
COc1ccc(/C=N/Nc2cc(C)nc(N3CCOCC3)n2)cc1OC	-8%	3%[46.1 µM]	-1%	21%[46.1 µM]	1%	/	-1%	/
COCCCNC(=O)Cc1ccc(S(=O)(=O)N2CCOCC2)s1	0%	29%	4%	-2%	/	/	2%	/
O=C(Cc1ccc(S(=O)(=O)N2CCOCC2)s1)Nc1ccccc1Br	8%	/	0%	/	5%	/	-21%	/
COc1ccc(S(=O)(=O)NC(C)C(=O)NCc2ccccn2)cc1Cl (stereo unspecified)	-6%	-2%[46.1 µM]	3%	-2%	-4%	/	-16%	/
CCOC(=O)c1ccc(NC(=O)c2cnc(N3CCCC3)nc2C)cc1	/	/	/	2%[46.1 µM]	/	12%	?	-4.6%
CC(=O)N1CCN(c2ccc(S(=O)(=O)N3CCCCC3)cc2[N+](=O)[O-])CC1	-19%	?	9%	3%	/	/	-28%	/
CCCN1CCC(NC(=O)CCc2nnc(Cc3cc(OC)ccc3OC)o2)CC1	-6%	7%[46.1 µM]	0%	4%[46.1 µM]	1%	/	-1%	/
Cc1cccc(-c2nnc(SCC(=O)O)n2Cc2ccccc2)c1	5%	12%[46.1 µM]	0%	7%[46.1 µM]	14%	/	6%	/
CN(C)c1cccc(C(=O)OCC(=O)c2ccc[nH]2)c1	1%	29%[46.1 µM]	0%	-25%	/	/	13%	/
COc1ccc(F)cc1CN1CCN(C(=O)CCC(=O)Nc2nnc(CC(C)C)s2)CC1	3%	/	-17%	/	0%	/	?	/
Cc1ccc(N(CC(=O)N2CCCCCC2)S(=O)(=O)c2ccccc2)cc1	3%	1%[46.1 µM]	-2%	?	-4%	/	38%[activator]	/

Next section.
SMILES	RE007 growth inh	Marburg entry inh	SARS PLP yeast	LASV entry inh	NS1 function inh	Cruzain inh noDet	StopGo reporter	Cruzain inh Det
CCN(CC)S(=O)(=O)c1cc(C(=O)Nc2ccccn2)ccc1C	-6%	3%	-8%	?	-74%	0%	0%	-2.1%
COc1cccc(CN(C(=O)CN2C(=O)c3ccccc3S2(=O)=O)C(C(=O)NCC2CCCO2)c2ccco2)c1 (stereo unspecified)	11%	-1%[46.1 µM]	13%	9%[46.1 µM]	?	/	22%	/
CN1CCN(Cc2c(O)ccc3cc(-c4ccc(Cl)cc4)c(=O)oc23)CC1	/	/	/	27%[46.1 µM]	/	14%	11%	-1.7%
Cc1cccc(NC2SC(=O)N(CC(=O)O)C2=O)c1 (stereo unspecified)	-9%	5%	-6%	2%	0%	9%	/	-0.2%
COc1cccc(C(=O)NNC(=O)c2ccc3ccccc3c2)c1	-19%	-20%	/	2%	/	/	10%	/
Cc1ccc2cccc(N)c2n1	-7%	10%[46.1 µM]	0%	/	/	/	25%	/
CN(C)CC(C)(C)CNC(=O)c1cc(=O)c2ccccc2o1	3%	1%	9%	1%	-2%	0%	-18%	0.6%
CC1=C(C(=O)OCC(C)C)C(c2ccsc2)C2=C(CCCC2=O)N1 (stereo unspecified)	-6%	5%	12%	-4%	-9%	-3%	-22%	-2.2%
COC(=O)[C@H](CCSC)NC(=O)Nc1ccc(C)cc1	6%	21%	1%	-2%	?	6%	13%	4.0%
O=S1(=O)CCOCCCN1Cc1ccc(Cl)cc1	2%	/	1%	/	-4%	/	-11%	/
COc1ccc(Nc2nc(N(C)c3ccccc3)nc(N)c2[N+](=O)[O-])cc1	6%	3%[46.1 µM]	5%	-6%	5%	/	?	/
CCC(=C/c1sc2ccc3ccccc3c2[n+]1C)/C=C1\Sc2ccc3ccccc3c2N1C	?	3.5µM*	-16%	?	-125%	/	?	/
O=C(CN1C(=O)S/C(=C\C=C\c2ccccc2)C1=O)NC1CCS(=O)(=O)C1 (stereo unspecified)	-10%	/	0%	/	1%	/	11%	/
N#Cc1ccccc1Sc1ccccc1C(=O)Nc1ccccc1	12%	-27%	0%	3%	-3%	-2%	-26%	6.3%
CCOC(=O)c1sc(NC(=O)/C=C/c2ccc(F)cc2)nc1C	5%	1%[46.1 µM]	-1%	8%	3%	/	-3%	/
